Compound activity deposited in PubChem BioAssay by ICCB-Longwood Screening Facility, Harvard Medical School.
Ba CapD inh = inhibitors of Bacillus anthracis CapD enzyme; purified CapD enzyme, fluorescence intensity read-out; hits give low values; some hits fall short of the stated cut; z-score (concentration not given with the values); 140,000 compounds, 0.23% hits;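 active means z-score under -4 in either of two replicates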;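 further: stock transfer was 100 nL into about 40 µL; score is relative to mean and spread of the plate; one replicate is shown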
AID504770 = growth inhibitors of E. coli YBA685 in a screen for V. cholerae RctB (chromosome II replication) inhibitors; E. coli YBA685 rctB-dependent plasmid, OD600 growth, 3 h; hits give low values; z-score (test concentration not listed); 130,000 compounds, 0.27% hits;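 active means z-score under -2 on both plates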;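 further: wells of about 30 µL received 100 nL stock; score is relative to mean and SD of the test wells; the first replicate is given; strong numbers were not always called active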
* marks the source's active call; other numbers are inactive results; . = not tested or not shown; & = joins results of further samples.

cpd	compound	Ba CapD inh	AID504770
1	O=C(Nc1cccc(-n2cccc2)c1)c1cccc2c1OCCCO2	-0.43	-0.7
2	COc1cc(SC)ccc1C(=O)NCc1ccccc1	.	-0.45
3	CC(C)C(=O)Nc1sc2c(c1C#N)CCC2	0.57	0.8
4	O=C(NC1CC1)c1ccc(/C=C2/Oc3ccccc3N(Cc3ccccc3F)C2=O)cc1	-0.24	0.15
5	Cn1c(=NC(=O)CCOc2ccccc2)sc2cc(Br)ccc21	0.77	-0.8
6	CCOc1ccc2c(c1)sc1nc(=O)c3ccncc3n12	-0.28	.
7	Nc1ccc2nonc2c1N	-0.24	.
8	CN1/C(=C\C=N\NC(=O)c2cccnc2)C(C)(C)c2ccccc21	.	-1.2
9	Cn1cccc1C(=O)NNC(=O)OCCCCCc1ccccc1	-0.96	.
10	COC(CNC(=O)c1oc2ccc3c(c2c1C)C=CC(C)(C)O3)OC	0.12	-0.45
11	CCC1CCCCN1c1cc(=O)n2ccccc2n1 (configuration not stated)	.	-0.75
12	Cc1ccc(S(=O)(=O)C(CC(=O)c2ccco2)c2ccc(Cl)cc2)cc1 (configuration not stated)	-0.26	-0.5
13	O=C(NNC(=O)c1ccccc1-n1cccc1)OCC1CCCCO1 (configuration not stated)	-0.81	.
14	CCOc1ccc(-c2cnc(N)s2)cc1	-1.2	-0.7
15	O=C(Nc1nccs1)c1ccc(-c2ccccc2C(F)(F)F)o1	.	0.3
16	CC12CC3CC(C1)CC(CC(=O)O)(C3)C2	-0.01	-0.9
17	O=C(N1CCOCC1)N1CCN(c2ccccc2F)CC1	9.9	0.05
18	CN(C1CCCCC1)S(C)(=O)=O	0.27	-0.4
19	COc1cccc(NC(=O)COc2ccc(C(=O)N3CCN(C)CC3)cc2)c1	.	-0.85
20	CC(C)CCn1cnc2c1c(=O)n(C)c(=O)n2C	-0.015	0.4
21	COc1cc(CN2CCN(CCOC(=O)NCc3ccc(-c4csnn4)cc3)CC2)cc2c1OCO2	-0.62	.
22	O=C(NNC(=O)c1ccccc1[N+](=O)[O-])c1ccc(Cl)c(Cl)c1	-0.27	.
23	COc1cc(C2SCC(=O)N2c2c(C)n(C)n(-c3ccccc3)c2=O)ccc1O (configuration not stated)	0.21	.
24	CCC(Cc1ccccc1)NC(=O)C(Cc1ccccc1)n1cccc1 (configuration not stated)	-1	-0.4
25	CCCc1nc2sc3c(Cl)ncnc3c2c2c1CCCC2	0.015	-0.65
26	O=C(NNc1cc(C(F)(F)F)ccc1Cl)c1ccc(=O)[nH]c1	.	-0.7
27	Cc1ccc(N2C(SCC(=O)O)=NC(=Nc3cccc(C)c3)C23CCCC3)cc1	-0.27	.
28	Cc1ccc2c(cnn2C(=O)CCCC(=O)N2CCN(c3cccc(Cl)c3)CC2)c1	0.6	0.85
29	O=C(O)CSc1ccnc2cc(Cl)ccc12	0.06	-0.05
30	Cc1cc(C(F)(F)F)c(C#N)c(SCC(=O)c2ccc[nH]2)n1	.	0.75
31	COc1ccc(CN2CCCC(COC(=O)N3CCN(c4ccccc4O)CC3)C2)cc1OCc1ccccc1 (configuration not stated)	-1.1	.
32	COc1ccc(/C=C2/SC(=S)N(C(C)C(=O)O)C2=O)cc1OC (configuration not stated)	-0.53	1.2
33	Cc1ccc(-c2nn(-c3ccc(C)cc3)c3c2cnc2c(F)cccc23)cc1	-0.33	-0.1
34	O=C(Nc1ncn[nH]1)C1c2ccccc2Oc2ccccc21	-0.56	-0.95
35	O=C(NC1CCCCCC1)C1CCN(S(=O)(=O)c2cccc3nonc23)CC1	0	0.05
36	FC(F)(F)c1cc(-c2ccco2)nc2cc(-c3ccco3)nn12	0.19	.
37	CCCCc1c(O)nc(Nc2nc(C)c3cc(C)c(C)cc3n2)[nH]c1=O	0.84	0.25
38	CN(CCc1ccccn1)Cc1ccccc1F	-0.68	1.4
39	CC(C)Cn1c(=O)c2ccccc2n2c(CCC(=O)Nc3ccccc3)nnc12	-0.16	0.95
40	COc1ccc(C(=O)Nc2nc3ccc4ccccc4c3s2)cc1	1.8	-0.55
41	O=C(OCCN1CCOCC1)c1ccc(O)cc1	-0.29	-0.8
42	N#Cc1ccc(S(=O)(=O)N2CCN(C(=O)OCc3ccccc3)CC2)cc1	0.39	.
43	CC(C)C(=O)Nc1cc(S(C)(=O)=O)ccc1Cl	.	-0.35
44	Cc1cccc(C)c1OCc1nc2c3cnn(C)c3ncn2n1	0.04	-0.95
45	CC(=O)c1c(C)oc2ccc(N(C(=O)c3ccncc3)S(=O)(=O)c3ccc(C)cc3)cc12	-1.2	.
46	COC(=O)Nc1ccc2c(c1)N(C(=O)CCN1CCOCC1)c1ccccc1CC2	-0.06	.
47	N#Cc1cnc(Sc2nnc(-c3cccs3)n2-c2ccc(Cl)cc2)nc1N	0.94	0.2
48	CCC(O)C#CCN1CCN(C)CC1 (configuration not stated)	0.67	-0.25
49	O=C(CC1C(=O)N(Cc2ccc(F)cc2)C(=S)N1Cc1ccco1)Nc1ccc(Cl)cc1 (configuration not stated)	0.22	0.2
50	Cc1cc(S(=O)(=O)Oc2ccc(Oc3ccccc3)cc2)c(C)cc1Cl	0.39	.
51	COc1cccc(NC(=S)N=S(C)(=O)c2ccccc2)c1 (configuration not stated)	-0.41	-1
52	COc1ccccc1C(=O)Nc1ccc(CN2CCCCC2)cc1	-0.52	2.3
53	O=S(=O)(c1ccc(F)cc1F)n1nccc1-c1csc(-c2ccccc2)n1	0.9	-0.35
54	Cc1ccc2c(CSCc3c(C)noc3C)cc(=O)oc2c1	.	2.8
55	CC(C)(CC(=O)O)CC(=O)N1CCN(Cc2c(F)cccc2Cl)CC1	1.2	-0.3
56	C=CCn1c(=O)c2ccccc2n2c(SCC(=O)c3ccc(Cl)cc3)nnc12	.	-0.1
57	Cc1noc(C)c1CON=c1c(C)nc2ccccc2nc1C	.	0.2
58	Cc1c(Nc2ncnc3c2cnn3-c2ccc(Cl)cc2)c(=O)n(-c2ccccc2)n1C	-0.36	.
59	CN(C)/C=C1\C(=O)c2ccccc2N(C)S1(=O)=O	15	.
60	O=S(=O)(Cc1ccccc1)N1CCN(CCO)CC1	0.34	-0.15

(next part)
cpd	compound	Ba CapD inh	AID504770
61	Cn1c(=O)cc(SCC(=O)NCCCN2CCN(c3ccccc3F)CC2)c2cc(Cl)ccc21	0.09	0.75
62	O=C(COc1ccc(C2=NN(C(=O)c3cccs3)C(c3ccco3)C2)cc1)N1CCCCC1 (configuration not stated)	.	0.45
63	COc1ccc(N2CCN(C(C)C(N)=O)CC2)cc1 (configuration not stated)	.	0.1
64	O=C(CN1CCCCCC1)Nc1ccc2c(c1)OC(F)(F)O2	.	0.05
65	CC(C)(C)OC(=O)N1CCNC(=O)C1	-0.5	-0.1
66	COc1nnc(-c2ccc(C)c(S(=O)(=O)N(C)C)c2)c2ccccc12	0.23	-1.2
67	O=C(/C=N/O)Nc1ccc2c(c1)OCO2	.	0
68	CCCCCSc1ncnc2nc[nH]c12	.	0
69	Cc1[nH]n(-c2ccccc2)c(=O)c1C1=NC2(CCCCC2)Cc2ccccc21	-1.5	.
70	Cc1nc(S(=O)(=O)c2ccc(Br)cc2)nc2c1CCC2	0.03	.
71	O=C(N(Cc1ccccc1)c1ccccn1)C12CC3CC(CC(C3)C1)C2	-0.37	-0.65
72	CCN1CCCC1CNC(=O)Nc1ccc2c(c1)N(C)C(=O)c1ccccc1S2 (configuration not stated)	-0.27	0.1
73	c1ccc(CCCNc2ncccn2)cc1	.	-0.25
74	CCOC(=O)C1=C(C)NC(C(=O)NCCCN2CC(C)CC(C)C2)CS1 (configuration not stated)	-0.32	0.5
75	Cc1cnc(C(=O)OCC(=O)NCC2CCCCC2)cn1	.	-0.25
76	C=CCn1c(COc2ccccc2OC)nc2ccccc21	-0.59	0.15
77	O=S(=O)(c1ccc(I)cc1)N1CCCCCC1	0.14	-1.1
78	C=CCN(S(=O)(=O)c1ccc(Cl)cc1)S(=O)(=O)c1ccccc1OC	.	0.35
79	CC(O)(CS(=O)(=O)c1ccccc1)C(=O)Nc1ccc(Cl)cc1Cl (configuration not stated)	-0.06	.
80	O=C(NCCCN1CCOCC1)c1nn2c(C(F)(F)F)cc(-c3ccccc3)nc2c1Br	-0.33	.
81	COC(=O)Cn1cnc2c(C#N)c3n(c2c1=O)CCCCC3	0.21	.
82	CN1C2CCC1CC(OC(=O)c1ccc(Cl)cc1)C2 (configuration not stated)	-0.34	1.1
83	O=C1CS(=O)(=O)CN1c1ccc(C(F)(F)F)cc1	0.12	-1.1
84	COc1ccc(-c2nnc(SCC(=O)N(C)C)n2C2CCCCC2C)cc1 (configuration not stated)	.	-0.4
85	COc1ccc(-n2cnc3nc(C)c(C(=O)/C=C/N(C)C)c(-c4ccccc4)c32)cc1	0.27	-0.45
86	Cc1c(Cc2ccccc2)c(=O)oc2cc3oc4c(c3cc12)CCCC4	2.9	1.6
87	O=C1CCC(=O)N1c1ccc(-c2nc3sc4c(c3c(=O)o2)CCC4)cc1	0.26	.
88	CC1CCN(c2ccc(C(F)(F)F)cn2)CC1	.	-0.2
89	Oc1ccccc1C=Nc1cc(C(F)(F)F)cc(C(F)(F)F)c1	0.66	.
90	Cc1c(OCC(F)(F)F)ccnc1CS(=O)c1nc2ccccc2[nH]1 (configuration not stated)	-1.2&-0.38	-0.3

Part of the list above in order of formula weight, lowest first:
cpd	compound	Ba CapD inh	AID504770
76	C=CCn1c(COc2ccccc2OC)nc2ccccc21	-0.59	0.15
81	COC(=O)Cn1cnc2c(C#N)c3n(c2c1=O)CCCCC3	0.21	.
86	Cc1c(Cc2ccccc2)c(=O)oc2cc3oc4c(c3cc12)CCCC4	2.9	1.6
77	O=S(=O)(c1ccc(I)cc1)N1CCCCCC1	0.14	-1.1
84	COc1ccc(-c2nnc(SCC(=O)N(C)C)n2C2CCCCC2C)cc1 (configuration not stated)	.	-0.4
78	C=CCN(S(=O)(=O)c1ccc(Cl)cc1)S(=O)(=O)c1ccccc1OC	.	0.35
80	O=C(NCCCN1CCOCC1)c1nn2c(C(F)(F)F)cc(-c3ccccc3)nc2c1Br	-0.33	.

The results go on.
cpd	compound	Ba CapD inh	AID504770
91	Cc1ccc(NC(=O)C(CC(C)C)NC(N)=O)cc1Cl (configuration not stated)	.	0.15
92	c1ccc2oc(CCc3nc4ccccc4o3)nc2c1	.	0.35
93	COc1cc2ncnc(NC(C)C)c2cc1OC	7.3	-0.1
94	COC(=O)c1sc(-c2ccccc2)cc1NC(=O)C1CCCCC1	3	-1.1
95	COc1ccc(/C=C2\SC(=S)NC2=O)cc1Br	0	.
96	Cc1csc2c(SCC(=O)NNC(=O)OCCc3ccccc3Br)ncnc12	0.39	.
97	NC(=O)CSCc1cc(Cl)c2c(c1)OCCCO2	.	1.1
98	FC(F)Sc1nnc(-c2ccccc2)n1-c1ccccc1	0.19	1.9
99	CN(C)/C=C(\Sc1ncccn1)C(=O)c1ccc(Cl)cc1	-1.3	-0.95
100	COCc1cc(OC(=O)N(C)C)nc(-c2ccccc2)n1	0.29	-0.3
101	Cc1cccc(N2CCCC2=Nc2ccc(Br)cc2C#N)c1	.	-0.25
102	O=C(CCC(=O)N1CCOCC1)NC1CCN2CCCc3cccc1c32 (configuration not stated)	5.3	.
103	CC(C)(C)c1ccc(-c2noc(CSc3ccccn3)n2)cc1	-0.02	2
104	O=C(COC(=O)c1ccc(O)cc1O)c1ccccc1	-0.14	0.15
105	Cc1ccc(C(=O)N2CCN(C(=O)C3CC=CCC3C(=O)O)CC2)cc1 (configuration not stated)	0.53	.
106	COC(=O)CNC(c1ccccc1)c1cc(Cl)ccc1NC(=O)c1ccc(OC)cc1 (configuration not stated)	-0.025	-0.05
107	COc1ccc(NC(=O)c2ccc3c(c2)N(C)CCS3)cc1	5.8	-1
108	NC(CC(=O)O)c1ccccc1[N+](=O)[O-] (configuration not stated)	-0.33	.
109	Cc1ccc(Nc2nc(N)nc(COC(=O)C3=COCCO3)n2)cc1	.	0.3
110	CCC(C(=O)O)N1C(=O)/C(=C\C(C)=C\c2ccccc2)SC1=S (configuration not stated)	-0.42	-0.25
111	c1nc(NCCCN2CCOCC2)c2sccc2n1	-0.76	-0.55
112	O=C(CSc1nc2[nH]c(=O)cc(O)c2s1)Nc1ccccc1	.	0.3
113	CC(C)(C)C(=O)OC[C@H]1O[C@@H](n2cnc3c(=O)[nH]cnc32)C[C@@H]1O	0.33	-0.75
114	CCn1c(=N)n(CCOc2ccc(Cl)cc2)c2ccccc21	0.26	-0.55
115	Cc1ccc(S(=O)(=O)NC(=O)NN2CC3CCCC3C2)cc1 (configuration not stated)	-1.9	0.2
116	O=C(c1cc2ccccc2oc1=O)N1CCCc2ccccc21	0.44	-0.55
117	CC(C)N(Cc1ccc(C(=O)O)o1)C(C)C	.	0.9
118	O=C(Cc1nc2ccccc2[nH]1)c1ccccc1	0.77	1
119	CCc1ccc(NC(=O)C2CCN(C(=O)c3ccccc3C)CC2)cc1	-0.15	-0.85
120	COC(=O)c1ccccc1N/C=C/c1ncc(C(F)(F)F)cc1Cl	0.23	.
121	Cc1ccc(S(=O)(=O)c2cc3ccc(O)cc3oc2=O)cc1C	69	-0.3
122	Cc1ccccc1-c1nnc(CN2CCC(C)CC2)o1	0.03	-0.3
123	CC1CCN(C(=O)CS(=O)(=O)Cc2ccccc2)CC1	.	-0.5
124	CC1=NN(C(=O)c2cccc([N+](=O)[O-])c2)C(O)(c2ccc(Br)cc2)C1 (configuration not stated)	-1.4	.
125	Cc1ccc(C)c(N2CCN(C(=O)NC3CCCCC3)CC2)c1	.	0.2
126	O=C1CSC(c2ccc(Cl)cc2)Nc2cccc3cccc1c23 (configuration not stated)	0.065	.
127	O=C(Nc1cccc(OC(=O)N2CCOCC2)c1)N1CCCCC1	.	1.4
